Calb biofilm kill: mixture kills Candida albicans biofilm cells | C. albicans biofilm persisters + clotrimazole, fluorescence viability; primary screen in compound mixtures of four per well | inhibition, % at 7.6 µM | 0.02% of 120,000 active | AID 1242;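 active = inhibition above 30.3% in the primary screen of four-compound pools, then above 30% when the compound was retested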;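 also: compounds exposed to preformed 24 h biofilms for 48 h; the number belongs to the whole pool; some results filed as inactive read as strong as hits; inactives centre near 12; 0% = biofilm with clotrimazole alone and 100% = kill control; retested singly at about 60 µM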
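System: C. albicans CAF4-2 wild-type biofilms; Medium: RPMI/MOPS medium, pH 7.0; Reagent: Clotrimazole, 50 µg/mL; Times: biofilm formation 24 h, compound exposure 48 h, 37 °C; Detection: 2-h Alamar Blue fluorescence, 535/590 nm excitation/emission; Evaluation: percent inhibition of biofilm viability.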
* hit, by the source's call. An excerpt; rates above refer to the full screens.

SMILES	Calb biofilm kill
O=C(/C=C/c1ccc(Cl)cc1)NC(=S)Nc1ccccc1C(=O)O	12.1
COc1ccc(/C=N\NC(=O)COc2ccccc2)c(C(=O)O)c1OC	11.3
Cc1ccc(C(OCC(O)CNC(C)c2ccccc2)c2ccccc2)cc1 (centres undefined)	9.0
CC(C)NC(=O)c1sc2c(c1C(=O)Nc1cccnc1)CCCC2	12.3
N#C/C(=C\c1c[nH]c2ccccc12)C(=O)NCC1CCCO1 (centres undefined)	14.9
CC1(C)CCc2c([nH]c3ccccc3c2=O)O1	25.0
O=C(NCCc1ccccc1)Oc1ccc(Cl)cc1	21.7
CCOC(=O)C(=NCC1CCCO1)NNc1cc(Cl)ccc1Cl (centres undefined)	17.1
COc1cc(CNCc2ccccn2)ccc1OCc1ccc(Cl)cc1	26.7
COc1cc(/C=N/NC(=O)C(=O)/C=C2\NC3(CCCC3)Cc3ccccc32)ccc1O	5.4
CN(C)CCSc1nc(-c2ccccc2)nc2c1CCC2	5.2
c1ccc(-c2nnc(N3CCN(c4ccccc4)CC3)nc2-c2ccccc2)cc1	6.7
CCN(CC)S(=O)(=O)c1ccc(N=NC2=C(O)CCCC2=O)cc1	-2.0
Cc1cc(C)c[n+](-c2nc3ccccc3nc2[N-]S(=O)(=O)c2ccc(Br)s2)c1	7.0
COc1ccc(/C=N/OCC(=O)Nc2nc3ccccc3s2)cc1	20.6
O=c1c2ccccc2nc2n1C(CBr)CN2 (centres undefined)	20.3
CCC(C)NC(=O)CSc1nnc(-c2ccc(Cl)cc2)n1N (centres undefined)	-0.3
C/C(CC(=O)Nc1ccc(N(C)C)cc1)=N\NC(=O)c1ccc([N+](=O)[O-])cc1Cl	17.0
CCCOC(=O)c1c(-c2ccc(C)cc2C)csc1NC(=O)C1C2CCC(O2)C1C(=O)O (centres undefined)	-1.8
O=C(NCc1cccnc1)c1ccc(COc2ccc(Cl)cc2)cc1	10.1
O=C1OC(NCc2cccnc2)(c2ccc(Cl)cc2)c2ccccc21 (centres undefined)	30.0
COc1ccc(C2CCCN2C(=O)Nc2ccc(F)cc2)cc1OC (centres undefined)	6.9
Cc1ccc(NC(=O)C(C)[n+]2ccccc2)cc1[N+](=O)[O-] (centres undefined)	19.3
COc1ccc(Cn2c(-c3ccco3)nc3c(c(=O)c4ccccc4n3C)c2=O)cc1	21.4
O=C1C=C(c2cccs2)C[C@H](c2ccccc2)[C@H]1n1nnc([N+](=O)[O-])n1	11.0
Cc1ccccc1NC(=O)N1CCCC1C(=O)NCc1cccs1 (centres undefined)	10.8
CCc1ccccc1OCC(=O)N(CC)CC(=O)NCc1ccc(F)cc1	18.9
CS(=O)(=O)c1cnc(-c2cccnc2)nc1N	8.4
CCCCCCN(C(=O)CCCCCN1C(=O)NC(c2ccc(-c3ccccc3)cc2)C(C(=O)OCc2ccccc2)=C1C)C(C(=O)NCCCC)c1ccc(OCC(=O)OC)cc1 (centres undefined)	5.0
CCOC(=O)C1C(c2ccc(OC)cc2)N(C)OC1(O)C(F)(F)F (centres undefined)	19.8
O=C(Nc1cccc(O)c1)c1ccccc1[N+](=O)[O-]	18.0
Cc1nn(-c2ccccc2)c(Cl)c1/C=N/Nc1nncc(=O)[nH]1	17.2
C/C(CC(=O)Nc1ccc(C)c(Cl)c1)=N\NC(=O)c1ccncc1	13.9
O=C(O)CCCC(=O)Nc1ccc(Cl)cc1	-5.3
O=C(Nc1cccc2cccnc12)C1CCCC1	5.2
O=C(C[n+]1cc(-c2ccc(F)cc2)n2c1CCC2)Nc1nc(-c2ccc(F)cc2)cs1	9.2
C#CCOCCOCCOCCNc1nc(N2CCN(C(=O)[C@H](CCC(=O)O)n3cc(C(N)Cc4ccc(O)cc4)nn3)CC2)nc(N2CCN(C(=O)[C@H](Cc3cc4ccccc4[nH]3)n3cc(C(N)[C@H](C)CC)nn3)CC2)n1 (some centres undefined)	21.4
CS(=O)(=O)c1ccc(Cl)c(NC(=O)Cc2ccccc2F)c1	6.6
CC(=O)Nc1ccc(/C(C)=N/Nc2nc(N3CCOCC3)nc(N3CCOCC3)n2)cc1	15.1
COc1ccccc1/C=C/C(=O)OCC(=O)Nc1c(F)cccc1F	16.8
O=C(CC1CCCCC1)Nc1ccc(-c2ccc3nncn3n2)cc1	13.7
Cc1cccnc1NC(=O)CSc1nnc(Cc2ccccc2)o1	4.8
O=C(NC1CCCCC1)C(c1ccccc1)N(Cc1ccc2c(c1)OCO2)C(=O)c1cnsn1 (centres undefined)	0.0
O=C(N/N=C/c1cccs1)c1ccc2nc[nH]c2c1	16.2
N/C(=N\OC(=O)CCC1CCCC1)c1ccc([N+](=O)[O-])cc1	11.3

In the list so far, 8 have an aryl methoxy group:
SMILES	Calb biofilm kill
COc1ccc(/C=N\NC(=O)COc2ccccc2)c(C(=O)O)c1OC	11.3
COc1cc(CNCc2ccccn2)ccc1OCc1ccc(Cl)cc1	26.7
COc1cc(/C=N/NC(=O)C(=O)/C=C2\NC3(CCCC3)Cc3ccccc32)ccc1O	5.4
COc1ccc(/C=N/OCC(=O)Nc2nc3ccccc3s2)cc1	20.6
COc1ccc(C2CCCN2C(=O)Nc2ccc(F)cc2)cc1OC (centres undefined)	6.9
COc1ccc(Cn2c(-c3ccco3)nc3c(c(=O)c4ccccc4n3C)c2=O)cc1	21.4
CCOC(=O)C1C(c2ccc(OC)cc2)N(C)OC1(O)C(F)(F)F (centres undefined)	19.8
COc1ccccc1/C=C/C(=O)OCC(=O)Nc1c(F)cccc1F	16.8

(cont.)
SMILES	Calb biofilm kill
Cn1c(OCc2cccnc2)nc2c1c(=O)n(Cc1ccc(Br)cc1)c(=O)n2C	2.8
CN(CCC#N)C(=O)COC(=O)c1ccc(CNS(=O)(=O)c2ccc(F)c(Cl)c2)cc1	20.5
COc1ccc(C2CCCN2C(=S)Nc2ccccc2C)cc1OC (centres undefined)	14.6
FC(F)Sc1nc2ccccc2[nH]1	8.7
CCCn1c(=O)c(/C(N)=N/O)nn(-c2cccc(C(F)(F)F)c2)c1=O	22.5
CCc1ccc(NC(=S)N(Cc2ccccc2)Cc2ccccn2)cc1	18.1
Nc1ncnc2c1ncn2[C@H]1C[C@H](O)[C@@H](COP(=O)(O)O)O1	5.2
Cc1onc(-c2c(Cl)cccc2Cl)c1C(=O)N1CCN(c2ccccc2)CC1	14.6
CCc1ccccc1NC(=O)CSc1nnc(Cn2nnc3ccccc32)n1C	3.2
O=C1Nc2ccccc2C1(O)c1ccccc1 (centres undefined)	18.3
Cc1ccc(C2CC(=O)c3cnn(-c4nc(C)cc(C)n4)c3C2)cc1 (centres undefined)	5.6
O=C1CC(c2ccccc2)Oc2cc(O)cc(O)c21 (centres undefined)	20.3
Cc1ccc(-n2ncc3c(NCc4ccco4)ncnc32)cc1C	15.4
CCOc1ccc(C(=O)NC(=S)Nc2ccc(NC(=O)c3ccco3)cc2)cc1[N+](=O)[O-]	-2.8
Cc1ccc(S(=O)(=O)CCNC(=O)Cc2ccc(Cl)cc2)cc1	-11.3
O=C(O)CSc1ncnc2scc(-c3ccc(Br)cc3)c12	15.9
Cc1ccc2cccc(OCc3ccccc3)c2n1	26.6
CC(=O)Oc1cc2cccc(OC(C)=O)c(=O)c2c(OC(C)=O)c1OC(C)=O	29.2
CCCn1c(C)cc(/C=C(\C#N)C(=O)O)c1C	7.9
O=S(=O)(c1ccccc1)N1CCN(c2nc(-c3cccs3)nc3ccccc23)CC1	17.2
CCOc1ccc(Cl)cc1CSc1ncn[nH]1	18.2
COc1ccnc(CSC(N)=Nc2cccc(C(F)(F)F)c2)c1	6.9
C#CCN1C(=O)C(O)(c2c(C)[nH]c3ccccc23)c2ccccc21 (centres undefined)	14.4
COc1ccc(/C=C/C(=O)Nc2nnc(C(C)C)s2)cc1OC	16.6
CC1CCCN(CC(O)CN)C1 (centres undefined)	5.6
CC(SC#N)C(=O)C12CC3CC(CC(C3)C1)C2 (centres undefined)	25.9
CCOc1ccc(NC(=S)NC2CC3CCC(C2)N3Cc2ccco2)cc1 (centres undefined)	13.8
Cc1c(C(=O)Nc2ccc3c(c2)OCCO3)sc2nc(-c3ccccc3)cn12	3.9
Clc1ccccc1-c1csc(Nc2cccnc2)n1	5.5
CCc1c(C)nc(N)c(C#N)c1-c1ccccc1	15.6
N#CC(c1ccccn1)c1ncc(C(F)(F)F)cc1Cl (centres undefined)	-22.6
O=C1c2ccccc2NC(c2ccco2)N1NS(=O)(=O)c1ccccc1 (centres undefined)	11.6
O=C(NCCCn1ccnc1)c1cc([N+](=O)[O-])cc([N+](=O)[O-])c1	14.6
COC(=O)c1ccc(/C=N/OCC(=O)NCc2ccc(F)cc2)cc1	15.1
Cc1ccccc1OCC(=O)N/N=C/c1cn(C)c2ccccc12	7.6
Cc1c(NC(=O)c2ccco2)cccc1C(=O)NN1C(=O)c2ccccc2C1=O	12.9
CN1CCN(C(=S)c2cn(Cc3ccccc3)c3ccccc23)CC1	15.4
CCOc1ccc(S(=O)(=O)c2c(C(=O)c3ccc(C)cc3)cnc3cc4c(cc23)OCCO4)cc1	17.2
Cc1nc(-c2cccc(S(=O)(=O)N3CCCCC3)c2)cs1	3.0
COc1ccc([N+](=O)[O-])cc1/C=N/Nc1nc(N2CCCCC2)nc(N2CCCCC2)n1	13.3
Cc1ccc(S(=O)(=O)n2nc(-c3cccnc3)nc2N)cc1	8.3
CN1CCN(C(N)=NC(=O)c2ccccc2)CC1	16.2
COc1ccc(OCC(O)CNC(=O)Nc2cc(C)cc(C)c2)cc1 (centres undefined)	7.4
CCCCCCCCC(=O)NNC(=O)c1c(O)c2ccccc2n(CC)c1=O	-2.6
Cc1cc(Cl)c(S(=O)(=O)N2CCN(c3ccccn3)CC2)cc1OCC(=O)NC1CCCCC1	10.6
OCCN1CCN(c2cc(-c3ccccc3)c3ccccc3n2)CC1	15.4
Cc1cccc(Nc2nc(N)c(C#N)c(CC#N)c2C#N)c1	11.5
COCC(C)N1CC(O)=C(c2nc(-c3ccc(Cl)cc3)cs2)C1=N (centres undefined)	10.2
O=C(CSc1ccc2ccccc2c1)NCc1cccs1	14.5
Cc1ccc2c(c1)C(c1ccccc1)N(C(=O)c1cc3ccccc3oc1=O)CC(=O)N2 (centres undefined)	14.5
CCOC(=O)C1(CCOC)CCN(Cc2ccccc2-c2ccco2)CC1	5.2
Cc1sc(NC(=O)CSc2nnc(CCNC(=O)c3cccs3)n2C)nc1-c1ccccc1	-4.1
Cc1c(C)n2c3c(cccc13)CC2	11.0
COc1ccc(OCCn2cc(/C=C(\C#N)C(=O)NCc3ccco3)c3ccccc32)cc1	20.7
Cc1cc(C2=NNC(=NC3CCCCC3)SC2)c(C)n1-c1c(C)n(C)n(-c2ccccc2)c1=O	7.8
CC(C)CC(NC(N)=O)C(=O)Nc1ccc(Oc2ccccc2)cc1 (centres undefined)	17.3
Cc1ccc(NC(=O)CSc2nnc3ccccn23)cc1S(=O)(=O)N1CCOCC1	10.8
COC(=O)CN1C(=S)N(c2ccc(OC)cc2)C(=O)/C1=C/c1ccc(OC)cc1	2.9
CN(C)c1ccc(/C=N\S(=O)(=O)c2ccccc2)cc1	10.4
COc1ccc2nc(NC(=O)CSc3nnnn3C)sc2c1	24.8

(further entries)
SMILES	Calb biofilm kill
Cc1cccc(NC(=O)CN2C(=O)N/C(=C\c3ccc(N4CCOCC4)cc3)C2=O)c1	21.8
CC(C)CNC1CCS(=O)(=O)C1 (centres undefined)	0.9
O=C(C1=C[C@H](c2ccc(Br)cc2)C[C@H](OCCCCO)O1)N1CCN(Cc2ccc3c(c2)OCO3)CC1	9.2
CCn1cc(Br)c(C(=O)Nc2ccc(F)cc2F)n1	19.2
O=C(CSc1nc2ccc(Nc3nc(N4CCCC4)nc(N4CCCC4)n3)cc2s1)NCc1ccco1	12.3
O=C(CSc1nc2ccccc2o1)c1ccccc1	11.9
Cc1nnc(-n2ncc(C#N)c2N)c2nn(-c3cccc(Cl)c3)c(C)c12	9.1
Clc1ccc(-[n+]2c(-c3cccc(Br)c3)[nH]c3nc4ccccc4nc32)cc1	17.8
Cc1ccc(C2CC(=O)C=C(Nc3ccc(Cl)cc3)C2)cc1 (centres undefined)	0.5
CS(=O)(=O)N1CCN(C(=S)NCc2ccc(F)cc2)CC1	14.4
Cc1cc(Cl)c2ccc(Cl)cc2n1	15.9
Cn1nc(C(C)(C)C)c([N+](=O)[O-])c1C(=O)Nc1cccc2ccccc12	4.2
Cc1ccc(OCCOCCn2cnc3ccccc3c2=O)c([N+](=O)[O-])c1	6.5
Cc1cc(=O)n(-c2ccc(Cl)cc2)c(=O)[nH]1	2.7
CC1CCN(c2ccc(NC(=O)Cc3ccccc3)cc2)CC1	13.4
S=C(Nc1ccccc1)Nn1cnnc1	6.8
Cc1ccc(S(=O)(=O)CCc2nc3ccccc3[nH]2)cc1	18.1
CC(Oc1ccc(Cl)cc1Cl)C(=O)Nc1ccc(OCC(=O)O)cc1 (centres undefined)	12.9
O=C(OCC(=O)N1CCCC1)c1ccc(S(=O)(=O)Nc2ccccc2)cc1	11.7
CCOC(=O)/C=C/C(=O)OCC(=O)NCc1ccccc1	14.3
COC(=O)c1ccccc1NC(=S)NC(=O)C1CCCCC1	15.7
O=C(Oc1ccccc1C(=S)N1CCCCC1)c1cc([N+](=O)[O-])cc([N+](=O)[O-])c1	17.4

In another format: results already given
| SMILES | Calb biofilm kill |
| --- | --- |
| CN1CCN(C(N)=NC(=O)c2ccccc2)CC1 | 16.2 |
| COc1ccc(OCC(O)CNC(=O)Nc2cc(C)cc(C)c2)cc1 (centres undefined) | 7.4 |
| CCCCCCCCC(=O)NNC(=O)c1c(O)c2ccccc2n(CC)c1=O | -2.6 |
| Cc1cc(Cl)c(S(=O)(=O)N2CCN(c3ccccn3)CC2)cc1OCC(=O)NC1CCCCC1 | 10.6 |
| OCCN1CCN(c2cc(-c3ccccc3)c3ccccc3n2)CC1 | 15.4 |

From PubChem
